Screens deposited in PubChem BioAssay by ICCB-Longwood Screening Facility, Harvard Medical School.
Polio RdRp inh – inhibitors of poliovirus RNA polymerase binding and polymerization | poliovirus polymerase elongation, fluorescence polarization; active compounds read low | % elongation, % (compound at 16.7 µg/mL) | hit rate 0.66% among 150,000 | AID 588519; in the data active = % elongation below about 90%; also: some results filed as inactive read as strong as hits
Target sequence (P03300 1749-2209 limits assumed): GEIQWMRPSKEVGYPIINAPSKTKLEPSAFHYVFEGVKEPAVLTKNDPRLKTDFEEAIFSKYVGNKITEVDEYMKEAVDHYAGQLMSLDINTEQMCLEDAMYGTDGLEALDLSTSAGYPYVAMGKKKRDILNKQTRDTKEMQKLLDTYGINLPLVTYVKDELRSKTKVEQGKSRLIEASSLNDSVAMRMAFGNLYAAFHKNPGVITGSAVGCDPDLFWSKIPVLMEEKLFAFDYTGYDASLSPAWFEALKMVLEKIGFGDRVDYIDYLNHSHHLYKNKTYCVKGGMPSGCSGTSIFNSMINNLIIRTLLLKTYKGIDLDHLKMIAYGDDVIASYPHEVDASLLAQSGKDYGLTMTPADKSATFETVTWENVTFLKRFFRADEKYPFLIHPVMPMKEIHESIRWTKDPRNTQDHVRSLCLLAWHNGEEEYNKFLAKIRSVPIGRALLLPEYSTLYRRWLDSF
MenB inh – inhibitors of Mycobacterium tuberculosis MenB enzyme. inhibition, %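 (about 12 µg/mL by stock and volumes)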. hit rate 0.43% among 100,000. P9WNP5. MenB enzyme assay, absorbance read-out; some hits fall short of the stated cut;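 active = mean of two replicates above 30%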;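 also: 0% = no compound and 100% = wells with inactive enzyme; the first replicate is given; strong numbers were not always called active; inactives centre near -10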
Target sequence (P9WNP5 whole entry, looked up): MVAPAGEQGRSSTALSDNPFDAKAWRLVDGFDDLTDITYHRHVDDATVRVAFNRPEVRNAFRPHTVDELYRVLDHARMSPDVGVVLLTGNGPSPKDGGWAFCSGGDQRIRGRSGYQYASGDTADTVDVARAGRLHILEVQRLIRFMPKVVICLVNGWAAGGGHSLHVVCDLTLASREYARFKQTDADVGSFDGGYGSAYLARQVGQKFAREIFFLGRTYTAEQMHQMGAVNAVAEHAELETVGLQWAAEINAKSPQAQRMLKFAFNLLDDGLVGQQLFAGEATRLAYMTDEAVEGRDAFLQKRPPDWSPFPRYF
MbtI inh – blocks the Mycobacterium tuberculosis siderophore enzyme MbtI. inhibition, %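 (about 17 µg/mL by stock and volumes)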. purified MbtI enzyme, fluorescence intensity read-out. AID 493033. hit rate 0.89% among 100,000;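 active = above 50% in both replicates, above 80% if mildly self-fluorescent; inactive = the rest, strongly fluorescent compounds included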;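 also: 0% = mean of negative and 100% = mean of positive controls; one replicate is shown; some compounds called inactive have numbers as strong as hits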
Polio RdRp inh intensity – recorded beside Polio RdRp inh, whose call it bears; % elongation; measured here: total intensity read-out; formula for this scale not given here;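 total fluorescence in place of polarization; lower means less elongation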
The depositor's hits bear a star; x = not tested or not shown. An unsorted share of the library; 1.7% or so of the library scored in one or more.

(1) Cc1cc(OCC(=O)N/N=C/c2ccc(I)o2)cc(C)c1Cl
(2) CCC1(C)N=c2c(c(=O)n(C)c(=O)n2C)=NO1 (configuration not stated)
(3) Cc1ccc(C2SC(=O)NC3=C2C(=O)c2ccccc23)cc1 (configuration not stated)
(4) Cc1cc(C(=O)Cn2ncc(Cl)c(Cl)c2=O)c(C)n1Cc1ccco1
(5) N#Cc1c(/N=C/c2ccco2)sc2c1CCCC2
(6) COc1cccc(N(CC(=O)N2CCC(C(N)=O)CC2)S(C)(=O)=O)c1
(7) Cc1ccc(C(C)n2cc(C(=O)NCC3CCCO3)nn2)cc1 (configuration not stated)
(8) CC(=O)Nc1ccc(S(=O)(=O)NC2CC(=O)N(c3ccc(F)cc3)C2)cc1 (configuration not stated)
entry no. | 1 | 2 | 3 | 4 | 5 | 6 | 7 | 8
Polio RdRp inh | 103 | 100 | 108 | 126 | 100 | 101 | 107 | 104
Polio RdRp inh intensity | 101 | 105 | 113 | 127 | 103 | 101 | 105 | 108
MenB inh | -57 | -9 | -5 | -11 | -24 | -4 | -6 | -14
MbtI inh | -4 | 6 | x | -9 | -2 | 0 | x | -6

(9) CC(C)(C)N(Cc1ccccc1)C(=O)CSc1nc2c(cnn2-c2ccccc2)c(=O)[nH]1
(10) O=C(COCc1nc2ccccc2s1)Nc1ccc(-c2nnc3n2CCCCC3)cc1
(11) C[C@]12CCC(=O)C=C1CC[C@@H]1[C@@H]2C(=O)C[C@@]2(C)[C@H]1CC[C@]2(O)C(=O)CO
(12) CC(C)CC1(C(=O)O)NC(c2ccccc2O)C2C(=O)N(C(C)C)C(=O)C21 (configuration not stated)
(13) Cc1cccc(-c2nc(C)c(CCNC(=O)C(C)(C)C)s2)c1
(14) CC1(C)CC(=O)c2cc(C#N)c(SCc3ccccc3)nc2C1
(15) Cc1nn(-c2ccccc2)c(C)c1P(=Nc1ccc(Br)cc1)(N1CCOCC1)N1CCOCC1
(16) Clc1cccc(OCCN2CCOCC2)c1
entry no. | 9 | 10 | 11 | 12 | 13 | 14 | 15 | 16
Polio RdRp inh | 99 | 89* | 101 | 112 | 102 | 104 | 103 | 101
Polio RdRp inh intensity | 100 | 87* | 102 | 112 | 103 | 98 | 108 | 105
MenB inh | -11 | -23 | -7 | -7 | -12 | 5 | -2 | -8
MbtI inh | -3 | -1 | -15 | x | 14 | 6 | 1 | x

(17) c1ccc2c(SCc3cn4ccccc4n3)nncc2c1
(18) CC1(C)CC2CC(C)(CN2C(=O)CSc2nc3ccccc3c(=O)[nH]2)C1 (configuration not stated)
(19) O=C(NCc1ccc(Cl)cc1)c1cc2ccccc2nc1Cl
(20) O=C(CSc1nnc(-c2cccs2)o1)Nc1cc(C(F)(F)F)ccc1N1CCOCC1
(21) CCOC(=O)c1cnn(-c2ccc(C(C)C)cc2)c1C1CCN(C(=O)OC(C)(C)C)CC1
(22) CC(C)C(NC(=O)c1ccco1)C(=O)N1CCC(Cc2ccccc2)CC1 (configuration not stated)
(23) CC1Cc2ccccc2N1NC(=O)c1ccc(Cl)c(S(N)=O)c1 (configuration not stated)
(24) Cc1cccc(NC2=NCC(C)S2)c1C (configuration not stated)
entry no. | 17 | 18 | 19 | 20 | 21 | 22 | 23 | 24
Polio RdRp inh | 109 | 104 | 99 | 102 | 97 | 104 | 102 | 99
Polio RdRp inh intensity | 116 | 109 | 96 | 108 | 96 | 107 | 100 | 103
MenB inh | x | -1 | x | -2 | -28 | 0 | -13 | -11
MbtI inh | 6 | 43 | -3 | 2 | 2 | -9 | -2 | 22

(25) COCCNC(=O)c1ccc(CS(=O)(=O)Cc2ccc(C)cc2)o1
(26) CN1CCC(=NOC(=O)Nc2ccccc2)CC1
(27) CCN(CC)S(=O)(=O)c1ccc(Cl)c(C(=O)OC)c1
(28) CNC(=O)c1ccccc1S(=O)c1cccc2cccc(C(=O)O)c12 (configuration not stated)
(29) N#CCCn1cc(C=C2C(=O)NC(=O)NC2=O)c(-c2ccccc2)n1
(30) Cc1noc(C)c1NC(=O)NC1CCCCNC1=O (configuration not stated)
(31) CCC1(C)NC(=O)N(/N=C/C2CC=CCC2)C1=O (configuration not stated)
(32) CS(=O)(=O)N1CCN(S(=O)(=O)c2ccccc2)CC1
entry no. | 25 | 26 | 27 | 28 | 29 | 30 | 31 | 32
Polio RdRp inh | 99 | 101 | 102 | 94 | 101 | 103 | 99 | 101
Polio RdRp inh intensity | 102 | 103 | 103 | 95 | 108 | 97 | 99 | 102
MenB inh | -9 | 0 | -16 | 0 | -13 | 7 | 14 | 43
MbtI inh | 6 | -1 | -14 | -3 | -10 | -1 | 1 | -2

(33) Cc1cc(NC(=O)CN(Cc2ccccc2)S(=O)(=O)/C=C/c2ccccc2)no1
(34) CNC(=O)c1cn2c3c(ccc(Cl)c3c1=O)OC(C)C2 (configuration not stated)
(35) O=C1CCCCC1Sc1nc2sccc2c(=O)n1-c1ccccc1 (configuration not stated)
(36) CCNc1nc(CN2CCOCC2)nc2scc(-c3ccccc3)c12
(37) Cc1[nH]c2ccccc2c1C(=O)COC(=O)C1CC(=O)N(Cc2ccco2)C1 (configuration not stated)
(38) CCN(CC)S(=O)(=O)c1cccc(-c2nn(CN3CCN(c4ccc(O)cc4)CC3)c(=S)o2)c1
(39) COC(=O)c1cc(-c2cccs2)nc2ccccc12
(40) Cc1c(CCC(C)C)c(NCCN2CCOCC2)n2c(nc3ccccc32)c1C#N
entry no. | 33 | 34 | 35 | 36 | 37 | 38 | 39 | 40
Polio RdRp inh | 109 | 100 | 101 | 102 | 91 | 100 | x | 101
Polio RdRp inh intensity | 107 | 102 | 101 | 103 | 92 | 109 | x | 105
MenB inh | -29 | 7 | -34 | 6 | -18 | 9 | -11 | -38
MbtI inh | -10 | 101 | 11 | 3 | -4 | 8 | 116 | -10

An excerpt of these results, with two lines to a compound.
Each structure is followed by: Polio RdRp inh, Polio RdRp inh intensity, MenB inh, MbtI inh
22. CC(C)C(NC(=O)c1ccco1)C(=O)N1CCC(Cc2ccccc2)CC1 (configuration not stated)
  104, 107, 0, -9
16. Clc1cccc(OCCN2CCOCC2)c1
  101, 105, -8, x
25. COCCNC(=O)c1ccc(CS(=O)(=O)Cc2ccc(C)cc2)o1
  99, 102, -9, 6
8. CC(=O)Nc1ccc(S(=O)(=O)NC2CC(=O)N(c3ccc(F)cc3)C2)cc1 (configuration not stated)
  104, 108, -14, -6
18. CC1(C)CC2CC(C)(CN2C(=O)CSc2nc3ccccc3c(=O)[nH]2)C1 (configuration not stated)
  104, 109, -1, 43

Further records follow.
(41) CCOc1ccc(C=Nc2ccc3sc(C)nc3c2)cc1
(42) O=C(Cn1nc(Cc2cccnc2)c2ccccc2c1=O)Nc1ccc(Oc2ccccc2)cc1
(43) O=C(c1cnn2c1NC(c1cccs1)CC2C(F)(F)F)N1CCSCC1 (configuration not stated)
(44) CCC(C)NC(=O)CN1CCc2cc(-c3csc(C)n3)ccc21 (configuration not stated)
(45) O=C(OCC(=O)N1CCCCC1)c1cc(-c2ccccc2)nc2ccccc12
(46) O=C(c1csc2c1CCCCC2)N1CCN(c2ccccc2)CC1
(47) CC1CCc2ccc(F)cc2N1S(=O)(=O)c1cccs1 (configuration not stated)
(48) c1ccc(-c2cc(-c3ccco3)no2)cc1
entry no. | 41 | 42 | 43 | 44 | 45 | 46 | 47 | 48
Polio RdRp inh | 102 | 103 | 103 | 109 | 105 | 101 | 103 | 107
Polio RdRp inh intensity | 103 | 104 | 103 | 103 | 98 | 106 | 107 | 108
MenB inh | -10 | -22 | -20 | -15 | x | -16 | -25 | -13
MbtI inh | 8 | 8 | -7 | -2 | 12 | -11 | 0 | x

(49) O=C1OC2(O)C3C4C=CC(C4)C3C(=O)N2c2ccccc21 (configuration not stated)
(50) CC1(C)Cc2c(c(N3CCOCC3)nc3sc(C(=O)O)cc23)CO1
(51) COc1ccc(-n2nc(C(=O)NCC(=O)N3CC(C)CC(C)C3)c3ccccc3c2=O)cc1 (configuration not stated)
(52) c1ccc2c(c1)NCC2CN1CCOCC1 (configuration not stated)
(53) CC(C)C(NC(=O)Cc1ccc(S(=O)(=O)N2CCOCC2)s1)c1nc2ccccc2[nH]1 (configuration not stated)
(54) Cc1cc(S(=O)(=O)Nc2cc(Br)c3oc4c(c3c2)C(=O)CCC4)ccc1Cl
(55) Cn1cc(S(=O)(=O)N2CCCC2)cc1C(=O)NC1CCN(Cc2ccccc2)CC1
(56) Nc1ccccc1N=CC1=C(O)CC(c2ccccc2)CC1=O (configuration not stated)
entry no. | 49 | 50 | 51 | 52 | 53 | 54 | 55 | 56
Polio RdRp inh | 102 | 106 | 104 | 103 | 106 | 103 | 103 | 97
Polio RdRp inh intensity | 101 | 94 | 100 | 100 | 104 | 107 | 104 | 96
MenB inh | -16 | -16 | -13 | 2 | -8 | -22 | -14 | x
MbtI inh | -15 | x | -12 | -2 | -9 | 2 | -11 | -4

(57) O=C(Cc1csc(-c2cccs2)n1)N1CCN(S(=O)(=O)c2ccccc2C(F)(F)F)CC1
(58) CCCC(CCC)C(=O)Nc1cccc(-c2nc3ccccc3[nH]2)c1
(59) O=C(NC1CCCCCCC1)C1CCCN(c2nc3ccccc3o2)C1 (configuration not stated)
(60) Cc1ccccc1OCc1n[nH]c(=S)n1C
(61) CN1CCCC(C(=O)c2ccccc2)C1 (configuration not stated)
(62) S=c1cc(-c2ccccc2)[nH]c(=S)[nH]1
(63) Cc1ccn2cc(-c3cccc(Cl)c3)nc2c1
(64) Cc1csc(SCC(=O)c2ccc3c(c2)OCO3)n1
entry no. | 57 | 58 | 59 | 60 | 61 | 62 | 63 | 64
Polio RdRp inh | 107 | 109 | 101 | 103 | 104 | 98 | 101 | 102
Polio RdRp inh intensity | 107 | 82 | 102 | 105 | 103 | 104 | 102 | 106
MenB inh | -37 | -41 | -7 | -18 | -10 | -162 | x | 0
MbtI inh | -47 | x | -9 | x | -24 | 86* | 95 | 6

(65) CNC(=O)c1ccccc1S(=O)c1ccccc1CO (configuration not stated)
(66) Cn1ccsc1=NC(=O)c1cccc(S(=O)(=O)N2CCc3ccccc32)c1
(67) Cc1ccc(CC23CN4CC(CN(C4)C2)C3=O)c(C)c1
(68) N#CCSCC(=O)Nc1ccccc1
(69) COc1ccc(CSCCN)cc1Cl
(70) C=CCN(CC=C)C(=O)C(C)N1CCN(C2CCCCC2)CC1 (configuration not stated)
(71) CCCc1cc(=O)[nH]c(SCc2ccccn2)n1
(72) CSc1ccc(Cn2cccc2C2=NC(c3ccccc3)CO2)cc1 (configuration not stated)
entry no. | 65 | 66 | 67 | 68 | 69 | 70 | 71 | 72
Polio RdRp inh | 100 | 100 | 99 | 101 | 101 | 104 | 103 | 103
Polio RdRp inh intensity | 96 | 106 | 100 | 99 | 100 | 103 | 103 | 103
MenB inh | 7 | -8 | 4 | -2 | 9 | -77 | -5 | -7
MbtI inh | 11 | 10 | -6 | 3 | -16 | -9 | 13 | 0

By substructure: the compounds so far with bromine (two)
(15) Cc1nn(-c2ccccc2)c(C)c1P(=Nc1ccc(Br)cc1)(N1CCOCC1)N1CCOCC1
(54) Cc1cc(S(=O)(=O)Nc2cc(Br)c3oc4c(c3c2)C(=O)CCC4)ccc1Cl
entry no. | 15 | 54
Polio RdRp inh | 103 | 103
Polio RdRp inh intensity | 108 | 107
MenB inh | -2 | -22
MbtI inh | 1 | 2

Going on with the list.
(73) COC(=O)c1cc2c(s1)CN(c1cc(C)cc(C)c1)C2
(74) CC1Cc2ccccc2N1C(=O)CSc1nnnn1Cc1ccccc1 (configuration not stated)
(75) CCCC(=O)NCCc1ccc(F)cc1
(76) CC(C)C(=O)Nc1cccc(-c2nc3ccccc3s2)c1
(77) COc1ccc(-n2nc(C(=O)NCC(=O)NCc3cccnc3)c3ccccc3c2=O)c(OC)c1
(78) CCCCNC(=O)c1cc(S(=O)(=O)N2CCCC(C)C2)ccc1F (configuration not stated)
(79) CC(=O)NCCc1ccc(-c2csc(N)n2)cc1
(80) CSc1cccc(NC(=O)c2ccc(=O)n(C)n2)c1
entry no. | 73 | 74 | 75 | 76 | 77 | 78 | 79 | 80
Polio RdRp inh | 104 | 107 | 105 | 101 | 104 | 99 | 96 | 102
Polio RdRp inh intensity | 104 | 107 | 99 | 103 | 106 | 102 | 101 | 104
MenB inh | -18 | -75 | -30 | -17 | -19 | 2 | 4 | 13
MbtI inh | -81 | -2 | -6 | -14 | 0 | -22 | 8 | 9

(81) Cc1cccc(C(=O)NC(C(=O)O)C(C)C)c1 (configuration not stated)
(82) CCCn1c(SCC(=O)c2cc(C)n(C3CC3)c2C)nc2cc(S(N)(=O)=O)ccc21
(83) O=C(NC1CC1)c1ccc(C2SCC(=O)N2Cc2ccco2)cc1 (configuration not stated)
(84) Cc1ccc(S(=O)(=O)N2CCN(C3CC(=O)N(Cc4ccccc4)C3=O)CC2)cc1C (configuration not stated)
(85) Cc1cc(S(=O)(=O)NCC2CCN(C(=O)OC(C)(C)C)CC2)c(C)o1
(86) COc1ccc(-n2c(=S)[nH]c3ccccc3c2=O)cc1
(87) CCCN(C(=O)C1c2ccccc2C(=O)N(CC(C)C)C1c1cccs1)c1ccccc1C (configuration not stated)
entry no. | 81 | 82 | 83 | 84 | 85 | 86 | 87
Polio RdRp inh | 106 | 100 | 104 | 103 | 104 | 103 | 100
Polio RdRp inh intensity | 106 | 105 | 104 | 105 | 103 | 94 | 102
MenB inh | x | -8 | -9 | 9 | -7 | -5 | -19
MbtI inh | -4 | -9 | -4 | 1 | -6 | x | -1
